# SARS PLpro yeast: qHTS of Yeast-based Assay for SARS-CoV PLP. AID 485353, 2010. hit rate 0.19% among 330,000. S. cerevisiae expressing SARS-CoV PLpro, growth rescue; control for the full effect not named in the record. Potency, µM (top dose mostly 32.9 µM), inactives show top-dose activity, positive = growth rescue; active means well fitted rising curve with a large enough effect; inconclusive means small, poorly fitted or top-dose-only effect; inactive means no such curve, though single readings can be large or run the other way; note: 0% is about no effect; nearly all actives have a fitted effect of over 55% in size; growth read by luminescence after 48 h
# Cruzain noTriton: qHTS Assay for Promiscuous and Specific Inhibitors of Cruzain (without detergent); Cruzipain (Trypanosoma cruzi), P25779; purified cruzain, Z-FR-AMC fluorescence, no detergent; Potency, µM, without a hit: max response, negative = inhibition, most hits filed as inhibitors; hit rate 2.3% among 200,000;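 note: plate controls were enzyme without inhibitor for no effect and buffer without enzyme for full effect; nearly all actives have a fitted effect of over 40% in size; top concentration of the series not given in the record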
# Target sequence (P25779 123-467 limits assumed): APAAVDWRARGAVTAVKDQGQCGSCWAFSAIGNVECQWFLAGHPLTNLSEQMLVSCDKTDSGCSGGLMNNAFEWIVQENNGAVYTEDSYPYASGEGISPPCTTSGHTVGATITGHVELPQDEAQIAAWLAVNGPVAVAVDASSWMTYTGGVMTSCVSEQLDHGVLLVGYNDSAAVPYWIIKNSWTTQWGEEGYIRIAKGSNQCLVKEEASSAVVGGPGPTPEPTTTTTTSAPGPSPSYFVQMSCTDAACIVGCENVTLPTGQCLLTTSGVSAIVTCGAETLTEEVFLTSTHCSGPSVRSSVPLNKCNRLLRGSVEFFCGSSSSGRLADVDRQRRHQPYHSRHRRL
#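 Purified cruzain at 1.5 nM, pre-incubated 15 min with compound at room temperature in 100 mM sodium acetate pH 5.5, 5 mM DTT, 0.00005% Triton X-100. Reaction started with 2 uM Z-FR-AMC; AMC fluorescence increase over 60 s gives rate.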
# Lassa entry inh: qHTS for Inhibitors of binding or entry into cells for Lassa Virus | Lassa virus pseudotype entry inhibition, cell reporter; control for the full effect not named in the record | Potency, µM (top dose mostly 37.9 µM), for the others: at the top dose activity change, negative = inhibition, hits mostly inhibitors | hit rate 1.2% among 300,000 | AID 540256, 2011; active means well fitted inhibition curve with a large enough effect; inconclusive means small, poorly fitted or top-dose-only effect, or effect the other way; inactive means flat fitted curve, though single readings scatter; tested in HEK293 cells; note: % is set by controls: 0 for no effect and ±100 for the full control effect; nearly all actives have a fitted effect of over 50% in size; luciferase read-out
# Marburg entry inh: qHTS for inhibitors of binding or entry into cells for Marburg Virus; AID 540276, 2011; Marburg virus pseudotyped entry inhibition, cell reporter; control for the full effect not named in the record; about a third of the inactives were read at about 46 µM; Potency, µM (doses to about 37.8 µM), without a hit: at the highest dose activity change, negative = inhibition, actives largely listed as inhibitors; hit rate 1.8% among 300,000; active = well fitted inhibition curve with a large enough effect; inconclusive = small, poorly fitted or top-dose-only effect, or effect the other way; inactive = flat fitted curve, though single readings scatter; tested in HEK293 cells; about a fifth of its hits are not listed in these tables; note: % is set by controls: 0 for no effect and ±100 for the full control effect; luciferase read-out
# Cruzain Triton: qHTS Assay for Promiscuous and Specific Inhibitors of Cruzain (with detergent); Cruzipain (Trypanosoma cruzi), P25779; purified cruzain, Z-FR-AMC fluorescence, 0.01% Triton; Potency, µM, for the others: max response, negative = inhibition, usual class: inhibitors; hit rate 0.43% among 200,000; AID 1478, 2009;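 note: plate controls were neutral wells for no effect and buffer without enzyme for full effect; nearly all actives have a fitted effect of over 40% in size; top concentration of the series not given in the record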
#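 Detergent-containing run (0.01% Triton X-100) in acetate buffer pH 5.5 with 5 mM DTT: enzyme at 1.5 nM final, 15 min compound preincubation at room temperature, then 2 uM Z-FR-AMC substrate. Activity taken as 60 s fluorescence increase at 360/450 nm.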
# RE007 growth inh: qHTS Assay for Inhibitors of the HIV-1 protein Vpr; S. pombe RE007 Vpr strain, BacTiter-Glo ATP luminescence, 24 h; control for the full effect not named in the record; hit rate 0.21% among 360,000; Potency, µM (titrated, usually from 92.2 µM), without a hit: at the highest dose activity change, negative = less growth; active = well fitted falling curve with a large enough effect; inconclusive = small, poorly fitted or top-dose-only effect; inactive = no such curve, though single readings can be large or run the other way;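 note: % is set by controls: 0 for no effect and ±100 for the full control effect; nearly all actives have a fitted effect of over 50% in size; the assay follows cell death caused by Vpr and the record does not say whether a fall means rescue or toxicity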
#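 Fission yeast strain RE007, carrying one chromosomally integrated HIV-1 vpr copy, was seeded at OD 0.01 in PMG+AL medium with 23 nL pinned compound. After 24 h at 30 °C and 99% humidity, viability was read by BacTiter-Glo luminescence.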
# StopGo reporter: High Throughput Screening for Foot and Mouth Disease Virus Antivirals | human cells with a luciferase reporter of 2A StopGo recoding; control for the full effect not named in the record | Potency, µM (doses to about 57.9 µM), for inactives: at the highest dose signal change, negative = less light | AID 1159524, 2015 | hit rate 1.2% among 410,000; active = well fitted falling curve with a large enough effect; inconclusive = small, poorly fitted or top-dose-only effect; inactive = no such curve, though single readings can be large or run the other way; tested in HEK293T cells; note: % is set by controls: 0 for no effect and ±100 for the full control effect; nearly all actives have a fitted effect of over 45% in size; luciferase light after 4 h
# NS1 function inh: qHTS Assay for Inhibitors of Influenza NS1 Protein Function; AID 2326, 2010; Potency, µM (doses to about 46.1 µM), without a hit: at the highest dose activity, positive = more growth; S. cerevisiae slowed by influenza A NS1, growth recovery by OD600; hit rate 0.4% among 270,000; active means well fitted rising curve with a large enough effect; inconclusive means small, poorly fitted or top-dose-only effect; inactive means no such curve, though single readings can be large or run the other way; note: nearly all actives have a fitted effect of over 50% in size
#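 Compounds were scored for reversing the slow growth caused by influenza A NS1 in S. cerevisiae, measured by optical density at 600 nm. Assay medium contained 2% galactose at pH 6.0; NS1-free yeast of the same strain were the positive control.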
# Starred values were filed as active, the others as inactive; u = inconclusive; x = not tested or not shown; & = joins results of further samples; [ ] = another dose, or the depositor's remark. Unless noted, calls come from the whole dose curve; as a rule, active = well fitted curve in the direction sought with a large enough effect; inconclusive = small, poorly fitted or top-dose-only effect, or another doubt; inactive = no such curve, though single readings can be large; an effect the other way counts as inactive or inconclusive. Potency is the fitted concentration of half-maximal effect.
SMILES,SARS PLpro yeast,Cruzain noTriton,Lassa entry inh,Marburg entry inh,Cruzain Triton,RE007 growth inh,StopGo reporter,NS1 function inh
CCCCCCc1ccc(OCC(=O)OC)cc1OCC(=O)OC,-17%,u,11%,19%,-3.6%,-6%,x,-67%
O=C(Cc1ccc(NS(=O)(=O)c2cccc(C(F)(F)F)c2)cc1)NCCN1CCOCC1,-4%,x,-15%,-23%[46.1 µM],x,36%,1%,x
CC(=O)NN1C(=O)/C(=C\c2ccccc2)SC1=S,1%,10%,x,-5%,-1.6%,x,2%,-14%
CN(CC(=O)Nc1ccc(F)c(F)c1F)C(=O)CN1C(=O)C2CCCCC2C1=O (stereo not drawn),-5%,x,u,17%,x,22%,-16%,7%
Cn1nc(C(=O)NCc2ccc(F)cc2)cc1C(=O)NCc1ccc(F)cc1,-1%,x,u,u,x,4%,2%,x
c1ccc(-c2nc3ccccn3c2NC2CCCC2)nc1,-6%,x,-2%[46.1 µM],u,x,u,-15%,-54%
O=C(CN1CCN(c2ccc(O)cc2)CC1)Nc1ccc2c(c1)OCCO2,0%,x,-16%[46.1 µM],u,x,-6%,2%,x
CC1=NN(c2ccccc2)C(=O)C1c1ccccc1 (stereo not drawn),14µM*,1%,u,u,-1.6%,1%,-18%,5%
Cn1c(CCCOc2ccc(Cl)cc2Cl)nnc1SCC(=O)Nc1cccc(F)c1,7%,24%,u,2%,-0.4%,4%,24%,13%
Nc1nc(Nc2ccccc2F)sc1C(=O)c1ccccc1,-4%,x,x,x,x,24%,42%[activator],-42%
CCOc1ccc(C(=O)Nc2ccc(N3CCN(C)CC3)cc2)cc1Br,-2%,-1%,6%,11µM*,-4.4%,-2%,-7%,-2%
COc1ccccc1/C=C/C(=O)OCC(=O)Nc1cc(C(F)(F)F)ccc1N1CCOCC1,27%,6%,-28%,-23%[46.1 µM],-8.5%,-10%,-27%,5%
COc1ccccc1CCC(=O)OCC(=O)c1c(N)n(CC(C)C)c(=O)n(C)c1=O,-5%,x,-27%,-10%,x,6%,u,x
COc1ccc(/C=N/N2CCN(c3ccccc3OC)CC2)cc1OC,-2%,27%,0%,11%,-2.5%,-11%,19%,-35%
Fc1ccc(C(OCCCc2cnc[nH]2)c2ccc(F)cc2)cc1,x,-6%,u,u,-11%,x,x,-26%
COc1ccccc1-c1noc(-c2ccc(NC(C)C)c([N+](=O)[O-])c2)n1,x,16%,u,0%[46.1 µM],-5.9%,x,8%,x
COc1ccc(C2C(C(=O)N3CCN(c4ccccc4)CC3)c3ccccc3C(=O)N2C)cc1OC (stereo not drawn),-1%,u,u,0%&0%,3.9%,17%,2%,-2%
COc1ccccc1NS(=O)(=O)c1cc(NC(=O)c2cccnc2)ccc1N1CCCCC1,0%,x,u,u,x,16%,-1%,x
CCN(CC(=O)Nc1ccccc1OC)C(=O)c1cccc(-n2cccc2)c1,4%,x,-5%,-11%,x,-4%,-6%,14%
CCc1cccc2c(C(=O)CN3C(=O)NC(C)(c4cccc5ccccc45)C3=O)c[nH]c12 (stereo not drawn),1%,x,u,u,x,8%,u,-7%
COc1ccccc1OCc1nc(-c2ccc([N+](=O)[O-])cc2)no1,13%,-3%,7%,23%,-6.2%,-6%,30%[activator],11%
Cc1cc2c(c(=O)n1Cc1cccnc1)C(c1ccccc1)C(C#N)=C(N)O2 (stereo not drawn),0%,-18%,-7%,-5%,1.2%,1%,0%,0%
CCOC(=O)c1ccc(NC(=O)N2CCN(c3ccccc3OC)CC2)cc1,0%,x,x,x,x,-25%,-15%,-5%
Cn1c(CN2CCCC2)c(C#N)c2ccccc21,1%,x,x,x,x,-14%,-11%,3%
O/N=C/c1ccc(OCc2ccccc2)c(Br)c1,-51%,-21%,u,-3%,-7.2%,u,29%,-64%

# Continued; it opens with the 2 that closed the last part.
SMILES,SARS PLpro yeast,Cruzain noTriton,Lassa entry inh,Marburg entry inh,Cruzain Triton,RE007 growth inh,StopGo reporter,NS1 function inh
Cn1c(CN2CCCC2)c(C#N)c2ccccc21,1%,x,x,x,x,-14%,-11%,3%
O/N=C/c1ccc(OCc2ccccc2)c(Br)c1,-51%,-21%,u,-3%,-7.2%,u,29%,-64%
O=C(Nc1ccc(S(=O)(=O)N2CCCCC2)cc1)c1ccc(F)cc1,-7%,x,u,u,x,6%,-24%,-17%
CCc1nonc1NC(=O)c1oc2ccc(Cl)cc2c1C,-1%,4%,u,14%[46.1 µM],-1.3%,-5%,43%&39%[activator],-1%
CC(=O)c1ccc(OC(=O)C2CC(=O)N(c3cccc(C)c3)C2)cc1 (stereo not drawn),-4%,-10%,6%,0%,0.3%,-16%,10%,-46%
COc1ccc(OCC(=O)NCCS(=O)(=O)N2CCN(c3cccc(Cl)c3)CC2)cc1,x,1%,-25%[46.1 µM],x,-6.3%,x,-8%,x
CSc1cccc(NC(=O)Nc2ccccc2OCc2cc(=O)n3cc(C)ccc3n2)c1,x,5%,u,x,0.3%,x,-6%,x
COc1cccc(N2CCN(S(=O)(=O)c3cc(Br)cc4c3N(C(=O)C3CC3)CC4)CC2)c1,x,0%,7%[46.1 µM],2%[46.1 µM],-1.7%,x,25%,x
COC(=O)C1=C(c2ccccc2)c2ccccc2S(=O)(=O)N1CC(=O)Nc1cccc(C(C)=O)c1,x,-7%,u,4%[46.1 µM],-6.6%,x,-13%,x
COc1ccc(CCNc2nc(-c3cccnc3)nc3ccccc23)cc1OC,-4%,x,u,8.9µM*,x,-13%,-20%,-12%
O=C(NC(Cc1ccccc1)C(=O)O)/C(=C\c1ccco1)NC(=O)c1ccccc1 (stereo not drawn),0%,-4%,u,u,-11%,-10%,-11%,10%
CC(C)(C)c1ccc(Oc2ccc(NC(=O)c3ccco3)cn2)cc1,-3%,x,x,x,x,u,u,-50%
CCc1cc(C(=O)Nc2c(C)nn(Cc3ccc(C)cc3)c2C)no1,x,1%,6%[46.1 µM],-15%[46.1 µM],-1.5%,x,u,x
c1ccc(OCCn2c(COc3ccccc3)nc3ccccc32)cc1,x,-4%,0%[46.1 µM],9%[46.1 µM],-7.9%,x,-9%,x
Cc1ccc(CCNC(=O)CCc2cn(Cc3ccccc3C)c3ccccc23)cc1,x,3%,u,x,-1.5%,x,-10%,x
O=C(NC(=S)Nc1ccccc1N1CCOCC1)c1ccc(-c2ccccc2F)o1,1%,x,-12%[46.1 µM],3%[46.1 µM],x,12%,-24%,0%
CSCC[C@H](NC(=O)OC(C)(C)C)C(=O)N1CCC(C(=O)N[C@@H](C)C(=O)O)CC1,-3%,-3%,0%,0%,0.1%,10%,2%,-3%
Cc1ccccc1OCCC(=O)N1CCN(S(=O)(=O)c2ccc(Br)cc2)CC1,-1%,x,u,u,x,-4%,-13%,x
Cc1cccc(NC(=S)N2CC3CC(C2)c2cccc(=O)n2C3)c1C (stereo not drawn),26%,6%,1%,5%,-2.1%,-7%,-21%,2%
Clc1ccc(-c2nnc(-c3cccc4ccccc34)o2)cc1Cl,-2%,7%,14%,-1%&-1%&-1%[46.1 µM],-0.6%,3%,39%[activator],1%&-2%
Cc1csc(NC(=O)c2ccc(C)c(S(=O)(=O)N3CCCCC3)c2)n1,-1%,-14%,-24%,-30%,-3.0%,0%,u,-4%
CCOC(=O)c1c(-c2ccc(OC)cc2)csc1NC(=O)CSc1ncnc2sccc12,24%,u,-7%,-34%,-4.2%,-12%,u,16%
COc1ccc(CCC(=O)NCC23CC4CC(CC(C4)C2)C3)cc1,-3%,x,x,x,x,18%,2%,-12%
COc1ccc(S(=O)(=O)NCCc2cc3ccc(C)c(C)c3[nH]c2=O)cc1,-2%,-12%,-20%&0%[46.1 µM],-6%&-10%[46.1 µM],4.8%,-15%,-3%&-3%,4%
Cc1cc(C)c(C(N)=O)c(Nc2cccc3ccccc23)n1,-3%,-16%,-6%,-8%[46.1 µM],-8.8%,2%,-7%,-27%
Cn1ccnc1SCC(=O)N1CCN(S(=O)(=O)c2ccccc2)CC1,-1%,x,x,x,x,11%,2%,10%
CN1C(=O)C(c2ccccc2[N+](=O)[O-])C(=O)c2ccccc21 (stereo not drawn),4%,x,x,x,x,8%,-2%,8%

# Further records:
SMILES,SARS PLpro yeast,Cruzain noTriton,Lassa entry inh,Marburg entry inh,Cruzain Triton,RE007 growth inh,StopGo reporter,NS1 function inh
C=CCn1cc(-c2cccc(Cl)c2)cc(C#N)c1=O,6%,7%,13%,4%,-6.1%,28%,-28%,4%
CCOc1ccc(NC(=O)CCS(=O)(=O)c2ccc(C)cc2)cc1,2%,x,18%[46.1 µM],u,x,4%,-19%,3%
COc1ccc2oc(C(=O)NCC3CCCO3)c(C)c2c1 (stereo not drawn),5%,x,x,x,x,-8%,54%[activator],20%
CCOC(=O)C1CCN(c2cc(=O)n(C3CCCCC3)c(=O)[nH]2)CC1,6%,1%,1%,-14%,1.7%,2%,-18%,-3%
N#CC1=C(N)Oc2n[nH]c(-c3cccs3)c2C1c1ccco1 (stereo not drawn),-4%,-21%,4%,15%,-8.8%,-14%,-10%,u
CC1S/C(=C(\C#N)C(=O)NCc2ccco2)N(Cc2ccco2)C1=O (stereo not drawn),-4%,-5%,11%,18%,-3.3%,3%,0%,8%
COc1ccc(CNc2cc(C)ccn2)c(O)c1,-2%,x,u,-1%[46.1 µM],x,0%,17%,2%
CCOc1ccc(-c2cc(C(=O)NCCCOC)c3c(-c4ccc(CC)cc4)[nH]nc3n2)cc1,x,-4%,-5%[46.1 µM],x,-0.1%,x,9%,x
Cc1cc(C)c(NC(=O)CSc2nnc(-c3ccccn3)n2N)c(Cl)c1,1%,x,-4%[46.1 µM],-13%[46.1 µM],x,8%,2%,2%
Cc1nc(C(=O)NCc2ccccc2)sc1C1(C)CC(c2ccccc2)=NO1 (stereo not drawn),1%,x,x,x,x,34%,7%,13%

# Bioassay records as filed in PubChem.
